# Six1-Eya2 blk: Six1/Eya2 interaction inhibition. Q15475+O00167. AlphaScreen GST-Six1/His-Eya2 binding, biochemical; active compounds read low; control for the full effect not named in the record. activity change, % (no concentration beside the values). actives 0.56% (n = 360,000). AID 651725; in the data active = activity change below about -65%; inconclusive = about -30% to -65%; inactive = above about -30%; note: % is set by controls: 0 for no effect and ±100 for the full control effect
#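 AlphaScreen luminescence read after one hour at 37 °C in darkness. Pin-transferred compounds met GST-Six1 and His-Eya2 protein (5X stock 250 nM/500 nM) plus glutathione donor and Ni-chelate acceptor beads (5X, 50 ug/mL).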
# D2 potentiator: human D2 receptor positive allosteric modulation. P14416. DiscoveRx D2 beta-arrestin cells, luminescence, 90 min; 100% = 57 uM dopamine signal. potentiation, % (concentration not given with the values). actives 0.23% (n = 360,000); active = potentiation of 50% or more; inconclusive = 30% to 50%; inactive = 30% or less;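 note: compound concentration not given in the record; tested on top of an EC20 dose of dopamine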
#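 PathHunter beta-arrestin assay in DiscoveRx D2 cells. Compounds were added with an EC20 of dopamine (50 nM final) for 90 min at 37 deg C. Luminescence was read 1 h after detection reagent, with 57 uM dopamine as the EC100 control.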
# CtBP-E1A blk: blocks the CtBP interaction with E1A | AlphaScreen GST-E1A/His-CtBP binding, 1536-well; active compounds read low; control for the full effect not named in the record | activity change, % (no concentration beside the values) | actives 0.49% (n = 340,000); in the data active means activity change below about -65%; inconclusive means about -30% to -65%; inactive means above about -30%; note: % is set by controls: 0 for no effect and ±100 for the full control effect
#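 Homogeneous bead-based format: GST-tagged E1A captured on glutathione donor beads, His-tagged CtBP on nickel acceptor beads; compounds precede bead addition by 2 h at 37 °C.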
# TRPV1 PAM: potentiators of human vanilloid receptor 1 (TRPV1); Q8NER1; TRPV1-expressing cells, Fluo-8 calcium influx, capsaicin EC20 potentiation; host cell line not named in the record; control for the full effect not named in the record; potentiation, % at 8.33 µM; actives 0.02% (n = 320,000); active means potentiation above 80%; inconclusive means 30% to 80%; inactive means below 30%; note: 0% is about no effect
#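 Fluo-8 calcium influx in TRPV1-expressing cells, kinetic read (ex 480/em 520 nm). Compound added and read 3 min for agonist activity, followed by capsaicin at EC20 final and 2 min further read for enhancement.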
# TRPML1 inh: human mucolipin-1 channel inhibition. AID 624415. actives 0.02% (n = 390,000). TRPML1-inducible cells, Ca2+ dye fluorescence, FDSS; active compounds read low; inhibition of EC80 agonist-evoked calcium signal. activity change, negative = inhibition, % (no concentration beside the values); in the data active means activity change below about -50%; inconclusive means about -30% to -50%; inactive means above about -30%;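 note: stimulus is agonist 54-4 at its EC80 concentration; % is set by controls: 0 for no effect and ±100 for the full control effect; compound concentration not given in the record; the text of the record puts the active cut at -80%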
# Target sequence (Q9GZU1 whole entry, looked up): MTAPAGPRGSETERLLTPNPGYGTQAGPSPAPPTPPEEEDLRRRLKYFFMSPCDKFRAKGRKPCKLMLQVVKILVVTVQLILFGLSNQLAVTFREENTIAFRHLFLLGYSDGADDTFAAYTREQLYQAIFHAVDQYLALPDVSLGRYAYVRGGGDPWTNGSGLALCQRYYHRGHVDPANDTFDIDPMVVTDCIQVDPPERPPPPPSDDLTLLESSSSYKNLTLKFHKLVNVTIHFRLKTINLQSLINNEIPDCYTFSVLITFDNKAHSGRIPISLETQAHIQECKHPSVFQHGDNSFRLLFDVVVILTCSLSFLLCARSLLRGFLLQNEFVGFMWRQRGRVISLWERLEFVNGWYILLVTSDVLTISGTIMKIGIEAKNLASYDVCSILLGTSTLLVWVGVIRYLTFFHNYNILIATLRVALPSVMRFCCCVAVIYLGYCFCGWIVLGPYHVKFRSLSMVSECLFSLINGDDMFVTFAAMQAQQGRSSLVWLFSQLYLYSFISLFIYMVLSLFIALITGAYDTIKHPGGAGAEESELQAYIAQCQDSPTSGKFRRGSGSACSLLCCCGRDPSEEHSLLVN
#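 TRPML1-DL cells, Tet-induced overnight (~16 h, 37 °C) at 1,500 cells/well, were loaded with Ca8 no-wash dye plus quencher for 45-90 min at room temperature. Compounds were pinned during FDSS kinetic reading; agonist 54-4 at EC80 (4 uM final) then added.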
# TRPML1 ag: agonists of human TRPML1 channel. actives 0.12% (n = 410,000). AID 624414. TRPML1-expressing cells, Ca2+ dye fluorescence, FDSS; host cell line not named in the record; reference of the full effect not given here. activation, % (concentration not given with the values); in the data active = activation above about 50%; inconclusive = about 30% to 50%; inactive = below about 30%; note: 0% is about no effect; the text of the record puts the active cut at 80%
#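 Tetracycline-induced TRPML1-DL cells are seeded and incubated overnight before loading with a no-wash Ca2+ dye and quencher. Agonist activity is taken from the 110 s fluorescence read following compound pin-transfer on an FDSS, before EC80 54-4 challenge.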
# * = called active by the depositor; ? = inconclusive; . = not tested or not shown.
# Each structure is followed by: TRPML1 inh	D2 potentiator	TRPML1 ag	Six1-Eya2 blk	CtBP-E1A blk	TRPV1 PAM
> CN(C)S(=O)(=O)c1ccc(NC(=O)c2ccccn2)cc1
  9	-23	1.2	22	0	-10
> CCN(C(=O)COC(=O)c1cccc(-n2cnnn2)c1)C1CCCCC1
  6	-6	-0.9	9	-11	-1
> CCOC(=O)c1c(C)[nH]c(C(=O)CSc2nnc(C3CC3)n2N)c1C
  13	3	2.0	-9	-7	-10
> CCOC(=O)CSc1nnc(-c2cccc(Br)c2)o1
  42	-4	-0.7	7	4	-22
> C=C(C)c1cccc(C(C)(C)NC(=O)NCC2CCCO2)c1 (stereo not given)
  11	-10	2.2	5	4	-1
> COc1ccc(CCNc2oc(COc3ccccc3)nc2C#N)cc1
  -9	-16	0.3	-13	2	0
> CCc1nnc(NC(=O)CSc2nccn2-c2cc(C)cc(C)c2)s1
  42	-8	-0.7	1	-23	8
> COC(=O)/C=c1/s/c(=C(\C#N)C(=O)NCc2ccco2)n(-c2ccc(C)cc2)c1=O
  8	-2	0.0	-3	2	-1
> Cc1ccc(-n2nc(C)cc2NC(=O)c2ccc(C)s2)cc1
  0	-14	-0.6	2	5	24
> Cc1cccc(Cc2nnc(CCC(=O)N(CC3CC3)CC3CCCO3)o2)c1 (stereo not given)
  -5	-1	-0.7	9	0	-12
> O=C1C2CCCN2C(c2ccccc2)N1c1nccs1 (stereo not given)
  7	-1	0.4	-3	1	-8
> CCN(C[C@H]1N[C@@](CC)(C(=O)OC)[C@H]2C(=O)N(Cc3ccccc3)C(=O)[C@@H]12)C(=O)NC(C)C
  -7	.	-0.7	9	6	.
> Cc1nn(Cc2ccccc2)c(Cl)c1C(=O)NCCc1ccc(Cl)cc1
  41	-3	3.3	9	10	-2
> Cc1ccc(/C=C2\SC(=S)N(CCCC(=O)NC3CCCC3)C2=O)cc1
  -8	4	0.3	10	-2	-3
> COc1ccc(S(=O)(=O)N2CCC(C(=O)NCCC3=CCCCC3)CC2)cc1OC
  -10	-5	-0.2	2	11	-4
> O=C(NNC(=O)c1cc2cc(Br)ccc2oc1=O)c1ccc(O)cc1O
  -17	-6	-0.1	-8	-12	-6
> COc1cccc(N2CCN(C(=O)CCc3nnc4ccc(N5CCOCC5)nn34)CC2)c1
  -2	-10	-0.3	-1	-10	-8
> Cc1cc(NC(=O)CSCC(=O)Nc2ccccc2N2CCCCC2)no1
  2	-20	0.3	4	14	6
> O=C1CCCc2c1[nH]c1ccc(Cl)cc21
  -6	-4	1.7	-2	-25	15
> CC(Oc1cccc2c1OC(C)(C)C2)C(=O)O (stereo not given)
  5	-22	-0.1	2	2	-5
> CCOC(=O)N1CCC(NC(=O)c2cc3c(-c4ccc(OC)c(OC)c4)nn(C)c3s2)CC1
  3	5	-0.7	-22	-17	1
> C[C@H]1CN([C@@H](C)CO)C(=O)Cc2cc(NC(=O)Cc3ccccc3)ccc2O[C@H]1CN(C)S(=O)(=O)c1cccs1
  7	-14	-0.2	-1	-7	.
> CC(OC(=O)c1cc2sccc2n1C)C(=O)NCc1ccco1 (stereo not given)
  -19	4	0.6	-3	8	1
> COC(=O)CSc1nc2ccc(NC(C)=O)cc2s1
  -16	-22	-0.1	-2	2	2
> Cc1ccn2cc(CNS(=O)(=O)c3ccc4ccccc4c3)nc2c1
  -14	-23	-0.2	19	-13	9
> NS(=O)(=O)c1ccc2nc(NC(=O)C3CCCO3)sc2c1 (stereo not given)
  17	-19	3.8	0	3	-10
> Cc1ccc(-n2cnn(-c3ccc([N+](=O)[O-])cc3[N+](=O)[O-])c2=O)cc1
  -2	28	0.3	-3	5	6
> O=C(NC1CC2CCCC(C1)N2C(=O)NC1CCCCC1)c1ccc(F)cc1 (stereo not given)
  2	-25	0.1	7	4	12
> Cc1ccc(-c2nnc(SC(C)C#N)n2N)cc1 (stereo not given)
  5	-10	-0.5	-2	5	.
> Cc1cc(NC(=O)Cn2nc(C(=O)O)c3ccccc3c2=O)ccc1Br
  -5	1	0.2	1	-4	-8
> Cc1oc(-c2ccc(Cl)cc2)nc1CN1CCCC(C(=O)NCc2cccnc2)C1 (stereo not given)
  8	-10	0.4	1	-4	-4
> O=C(CSc1nc(-c2cccs2)cc(C(F)(F)F)n1)Nc1cc(OCC(F)(F)F)cc([N+](=O)[O-])c1
  18	-12	1.1	8	6	-8
> O=C(CSC1=NS(=O)(=O)c2cc(F)ccc2N1)Nc1ccccc1F
  -7	-15	0.0	6	18	?
> O=C(c1ncc[nH]1)c1ccccc1C(=O)N1CCOCC1
  4	-9	0.4	1	7	1
> CC1(C)Cc2ccccc2-c2n[nH]c(=S)n21
  11	-16	-0.5	-3	4	5
> CCc1ccc(Oc2cc(C)nc(N)n2)cc1
  10	-7	-0.8	5	5	17
> C[C@H]1COc2cc(N3CCSCC3)ccc2S(=O)(=O)N1
  .	.	-0.2	4	-7	.
> O=c1c(=O)n(CCO)n(CCO)c(=O)n1CCO
  11	-5	0.0	3	-3	.
> O=C(Cc1c(O)c2ccccc2[nH]c1=O)NCc1ccc(F)cc1
  -4	-22	0.0	-10	-1	3
> O=C1CCC([N+](=O)[O-])C(c2ccc(-c3ccccc3)cc2)N1 (stereo not given)
  -10	-3	-1.0	4	8	.
> N#CC1=C(Nc2ccccc2Cl)SC2(CCCC2)NC1=O
  .	-11	-0.9	2	4	.
> Cc1ccc(C)c(C(=O)COC(=O)c2cccc(N3C(=O)c4c(C)nc5ccccc5c4C3=O)c2)c1
  -12	7	0.3	-12	-1	-7
> O=Cc1ccc(-c2ccc([N+](=O)[O-])cc2Cl)o1
  -16	3	-0.3	-17	-4	-25
> CC(=O)c1ccc(N2C(=O)CC(N3CCN(S(=O)(=O)c4cc(C)ccc4C)CC3)C2=O)cc1 (stereo not given)
  -2	2	-0.6	0	2	.
> COCc1c(C(=O)OCC(=O)N2c3ccccc3NC(=O)C2(C)C)oc2ccccc12
  -10	-3	2.4	2	1	7
> CCOc1ccc(C(=O)NC2CCN(S(=O)(=O)c3ccccc3)CC2)cc1
  -13	-4	1.0	18	-21	-5
> COc1ccc(-c2csc(NC(=O)CSc3nc(C)cs3)n2)cc1
  0	-13	1.5	-13	2	.
> Cc1ccccc1OCCNC(=O)c1ccc2ccccc2n1
  17	-9	2.2	19	19	-3
> CCCCOC(=O)Nc1cccc(C(C)=O)c1
  2	-15	0.9	6	-4	-19
> COc1ccc(C(C)(C)C)cc1NC(=O)c1[nH]c(C)c(C(C)=O)c1C
  14	-8	2.7	-23	-16	-25
> Cc1ccc(C(=O)NCCSC2CCCCC2)cc1S(=O)(=O)Nc1ccccc1
  -17	-3	1.5	-3	1	-15
> CC(C)OC(=O)CCCNc1ccc([N+](=O)[O-])cc1[N+](=O)[O-]
  -2	-2	0.6	-18	3	1
> CC(=O)N1CCN(C(=O)CSc2nnc(C)n2-c2ccccc2)CC1
  19	-3	-0.9	3	.	-7
> Cc1ccc(C2C(=O)c3ccccc3C2=O)cc1
  20	-3	-1.3	-12	2	-5
> CCOC(=O)N/N=C/c1cc(OC)c(O)c(OC)c1
  2	-10	-0.4	4	-1	-7
> COCOc1ccc(/C=C2/Oc3cc(OCOC)cc(OCOC)c3C2=O)c(OCOC)c1
  .	-3	.	-2	9	.
> Cc1ccc(C(=O)OCC(=O)N2CCNC2=O)c(C)c1
  -8	6	0.6	3	-10	-36
> CCN(C(=O)CO/N=C/c1ccc(OC)cc1OC)c1c(N)n(Cc2ccccc2)c(=O)[nH]c1=O
  -2	-2	0.1	-1	-2	9
> COc1ccc(OC)c(NS(=O)(=O)c2ccc3c(c2)n(C)c(=O)n3C)c1
  25	-7	-0.2	-2	0	-2

# In the list so far, nine have an aryl methoxy group.
# Each structure is followed by: TRPML1 inh	D2 potentiator	TRPML1 ag	Six1-Eya2 blk	CtBP-E1A blk	TRPV1 PAM
> COc1ccc(CCNc2oc(COc3ccccc3)nc2C#N)cc1
  -9	-16	0.3	-13	2	0
> COc1ccc(S(=O)(=O)N2CCC(C(=O)NCCC3=CCCCC3)CC2)cc1OC
  -10	-5	-0.2	2	11	-4
> COc1cccc(N2CCN(C(=O)CCc3nnc4ccc(N5CCOCC5)nn34)CC2)c1
  -2	-10	-0.3	-1	-10	-8
> CCOC(=O)N1CCC(NC(=O)c2cc3c(-c4ccc(OC)c(OC)c4)nn(C)c3s2)CC1
  3	5	-0.7	-22	-17	1
> COc1ccc(-c2csc(NC(=O)CSc3nc(C)cs3)n2)cc1
  0	-13	1.5	-13	2	.
> COc1ccc(C(C)(C)C)cc1NC(=O)c1[nH]c(C)c(C(C)=O)c1C
  14	-8	2.7	-23	-16	-25
> CCOC(=O)N/N=C/c1cc(OC)c(O)c(OC)c1
  2	-10	-0.4	4	-1	-7
> CCN(C(=O)CO/N=C/c1ccc(OC)cc1OC)c1c(N)n(Cc2ccccc2)c(=O)[nH]c1=O
  -2	-2	0.1	-1	-2	9
> COc1ccc(OC)c(NS(=O)(=O)c2ccc3c(c2)n(C)c(=O)n3C)c1
  25	-7	-0.2	-2	0	-2

# Compound profiles, from the list above. Order of screens: TRPML1 inh | D2 potentiator | TRPML1 ag | Six1-Eya2 blk | CtBP-E1A blk | TRPV1 PAM
# Profile of CC(=O)N1CCN(C(=O)CSc2nnc(C)n2-c2ccccc2)CC1 → 19 | -3 | -0.9 | 3 | . | -7
# Profile of COc1ccc(OC)c(NS(=O)(=O)c2ccc3c(c2)n(C)c(=O)n3C)c1 → 25 | -7 | -0.2 | -2 | 0 | -2
